Screening results: PubChem BioAssay, National Center for Advancing Translational Sciences (NCATS)
GLA inh pH 4.5 – qHTS Assay for Inhibitors of Human alpha-Galactosidase at pH 4.5; Alpha-galactosidase A (Homo sapiens), P06280; purified enzyme, 4-MU-alpha-Gal fluorescence, pH 4.5; activity change, negative = inhibition, % at 105 µM; 230,000 tested, under 10 active; AID 1467, 2008; inconclusive = small, poorly fitted or top-dose-only inhibition, or a rising curve; inactive = flat fitted curve, though single readings scatter; no compound was filed as active;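 note: 0% = full activity with enzyme and -100% = basal without enzyme; dose as in the result columns while the protocol names 77 µM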
Target sequence (P06280 whole entry, looked up): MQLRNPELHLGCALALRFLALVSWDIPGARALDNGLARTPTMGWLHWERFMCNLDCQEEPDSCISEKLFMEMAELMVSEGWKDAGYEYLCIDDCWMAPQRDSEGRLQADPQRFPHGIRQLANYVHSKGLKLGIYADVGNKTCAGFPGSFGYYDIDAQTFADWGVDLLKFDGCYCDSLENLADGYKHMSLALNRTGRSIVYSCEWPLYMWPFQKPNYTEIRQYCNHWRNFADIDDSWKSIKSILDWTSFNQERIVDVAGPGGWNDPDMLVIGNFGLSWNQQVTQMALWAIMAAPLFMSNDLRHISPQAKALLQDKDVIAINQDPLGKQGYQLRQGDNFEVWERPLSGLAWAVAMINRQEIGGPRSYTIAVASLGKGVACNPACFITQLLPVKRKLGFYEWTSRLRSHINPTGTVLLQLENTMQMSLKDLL
Rango-impB inh – qHTS Assay for Inhibitors of Rango (Ran-regulated importin-beta cargo) - Importin beta complex formation; Importin subunit beta-1 (Homo sapiens), Q14974; Rango CFP/YFP FRET sensor + importin beta, 45 min; Potency, µM (top dose mostly 92.2 µM), inactives show top-dose inhibition of complex formation; 340,000 compounds, 0.031% hits; active = rising FRET ratio curve, often small or poorly fitted; inconclusive = mostly compound fluorescence or quenching in the first reads; inactive = flat curves in all reads;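 note: potency is the fitted concentration of half-maximal effect; 0% = DMSO wells and 100% = buffer wells lacking importin beta; nearly all actives have a fitted effect of over 15% in size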
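Inhibition scored from the CFP 486 nm/YFP 530 nm FRET ratio 45 min after adding 0.125 microM importin beta to 50 nM Rango biosensor preincubated 5 min with compound (room temperature, PBS with DTT, Tween-20, BSA). No-importin wells as positive control.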
Rango release inh – qHTS Assay for Inhibitors of RanGTP induced Rango (Ran-regulated importin-beta cargo) - Importin beta complex dissociation. Biochemical FRET Rango-importin beta, RanGTP-induced dissociation. Snurportin-1 (Homo sapiens) + GTP-binding nuclear protein Ran (Homo sapiens) + Importin …. Potency, µM (top dose mostly 46.1 µM), without a hit: top-dose activity change, negative = inhibition. 340,000 compounds, 0.071% hits; active means falling FRET ratio curve, often poorly fitted, with flat reads before Ran was added; inconclusive means other falling curves, or compound fluorescence or quenching; inactive means flat or rising ratio curve;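 note: potency is the fitted concentration of half-maximal effect; % of control where 0% means no effect; nearly all actives have a fitted effect of over 45% in size; -100% = wells without RanGTP and RCC1; the record marks most hits as doubtful in a second field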
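Quantitative HTS using a FRET biosensor: 0.1 uM Rango, 0.25 uM importin beta, 0.6 uM Ran, 2 mM GTP, 0.2 uM RCC1 final, PBS with DTT, Tween-20 and BSA. Post-read taken 45 min after Ran addition.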
miR-21 FLuc – qHTS Assay for Modulators of miRNAs and/orActivators of miR-21 | AID 2288, 2010 | HeLa miR-21 FLuc reporter, luciferase, 48 h | Potency, µM (top dose mostly 38.3 µM), inactives show top-dose reporter change, positive = more light | 340,000 tested, under 10 active; active = well fitted rising curve with a large enough effect; inconclusive = small, poorly fitted or top-dose-only effect; inactive = no such curve, though single readings can be large or run the other way;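 note: % of control where 0% means no effect; miR-21 action dims this reporter so a rising signal means less miR-21 action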
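Luminescence from a firefly luciferase reporter carrying a miR-21 binding site downstream, stably expressed under a CMV promoter in HeLa cells that make miR-21 endogenously, reports miRNA modulation after 48 h compound exposure up to approximately 40uM final.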
* = called active by the depositor; & = joins results of further samples. Some of the compounds tested. The share of hits here may be higher or lower than overall.

Cc1ccc(S(=O)(=O)CCc2nnc(N)s2)cc1C was read as GLA inh pH 4.5 -3.6, Rango-impB inh -1.3%, Rango release inh -4.7% and miR-21 FLuc -4.9%.
For CCOC(=O)c1c(-c2ccc(C)o2)csc1NC(=S)NC(=O)c1cccs1 the results were GLA inh pH 4.5 -8.7, Rango-impB inh -2.7%, Rango release inh 17.2% and miR-21 FLuc -12.2%.
For NC(=O)CSc1nnc(-c2ccc(S(=O)(=O)N3CCCC3)cc2)o1 the results were GLA inh pH 4.5 0.3, Rango-impB inh 3.4%, Rango release inh -21.9% and miR-21 FLuc -1.0%.
COc1ccc(C)cc1NC(=O)CSc1nnc2ccc(-c3ccncc3)nn12 was read as Rango-impB inh 0.0% and Rango release inh 16.0%.
For COc1ccc(NS(=O)(=O)c2ccc(C)c(NC(=O)c3ccc(C)c(S(=O)(=O)N4CCOCC4)c3)c2)cc1 the results were GLA inh pH 4.5 0.2, Rango-impB inh 0.3%, Rango release inh -6.1% and miR-21 FLuc 8.9%.
Screening O=C(Nc1ccon1)c1ccc(F)c(S(=O)(=O)N2CCCCC2)c1 returned Rango-impB inh -2.5%, Rango release inh -1.1% and miR-21 FLuc 0.1%.
`O=C1CCCCN1CC(=O)N1CCCC(N2CCN(c3ccccc3F)CC2)C1` (stereo not given) gave Rango-impB inh -0.9%, Rango release inh -6.0% and miR-21 FLuc -2.9%.
For O=C(Nc1nc(-c2ccccn2)cs1)c1ccc(-c2ccccc2F)o1 the results were Rango-impB inh inconclusive and Rango release inh -20.7%.
Screening O=C1N[C@@H](Cc2ccccc2)COC(=O)[C@@H](Cc2ccc(F)cc2)CC/C=C/C[C@H]1CC(=O)N(CCO)Cc1ccccc1 returned Rango-impB inh 1.0% and Rango release inh 0.9%.
`Cc1ccc(NC(C(N)=O)c2c(C)[nH]c(=O)[nH]c2=O)cc1` (stereo not given) gave GLA inh pH 4.5 0.9, Rango-impB inh -1.0%, Rango release inh -13.1% and miR-21 FLuc 0.0%.
Screening Cc1ccc2c(c1)N(CC(=O)NCCCN1C(C)CCCC1C)C(=O)c1cccnc1O2 (stereo not given) returned Rango-impB inh -1.4%, Rango release inh 2.8% and miR-21 FLuc -2.6%.
`Cc1ccc(C)c(NC(=O)c2cc3ccccn3n2)c1` gave GLA inh pH 4.5 5.2, Rango-impB inh 1.2%, Rango release inh -12.5% and miR-21 FLuc -40.5%.
`COC(=O)[C@]1(Cc2ccccc2)N[C@H](CN(C)C(=O)Nc2ccc(Cl)cc2)[C@@H]2C(=O)N(C)C(=O)[C@@H]21` gave Rango-impB inh 2.2% and Rango release inh -9.0%.
For COc1ccccc1NC(=S)N1CCN(c2ccccc2F)CC1 the results were Rango-impB inh 3.7%, Rango release inh -8.6% and miR-21 FLuc -5.4%.
`COC(=O)[C@H](Cc1ccccc1)NC(=O)O[C@@H]1C(=O)c2cc(Br)ccc2O[C@H]1c1cccc(OC)c1` gave GLA inh pH 4.5 -3.8&-3.9 and miR-21 FLuc -23.5%.
CCn1c(=S)sc2c(=O)n(CC(=O)NC(C)CCc3ccccc3)c(C)nc21 (stereo not given) was read as Rango-impB inh -1.3%, Rango release inh -6.7% and miR-21 FLuc 11.8%.
`N#CC1=C(N)OC2=C(CC/C2=C\c2ccccc2)C1c1ccccc1` (stereo not given) gave GLA inh pH 4.5 4.1, Rango-impB inh inconclusive, Rango release inh inconclusive and miR-21 FLuc -4.8%.
Screening COc1ccc(-c2cn(CCC(=O)NCc3ccc(C)cc3)c(CCN)n2)cc1 returned Rango-impB inh 0.9% and Rango release inh -2.3%.
Screening CCOC(=O)CN(C(=O)CCC(=O)Nc1cc(C)on1)C(C(=O)NC1CCCC1)c1cccnc1 (stereo not given) returned GLA inh pH 4.5 -0.2, Rango-impB inh 0.0%, Rango release inh 28.3% and miR-21 FLuc -2.3%.
For O=C(NCC(=O)N(c1cccc(F)c1)C(C(=O)NC1CCCC1)c1cccnc1)c1ccco1 (stereo not given) the results were Rango-impB inh 1.7%, Rango release inh -6.2% and miR-21 FLuc -1.2%.
Cc1ccc(COc2ccc(C)nc2[N+](=O)[O-])cc1 was read as GLA inh pH 4.5 -2.6, Rango-impB inh -2.8%, Rango release inh 4.3% and miR-21 FLuc -61.6%.
`Cc1ccc2cc(C)c3nnc(SCC(=O)c4cccs4)n3c2c1C` gave GLA inh pH 4.5 1.8, Rango-impB inh 2.0%, Rango release inh 6.0% and miR-21 FLuc -18.8%.
`Cc1cc(NC(=O)c2cccc(C(=O)Nc3cc(C)on3)n2)no1` gave GLA inh pH 4.5 -5.2, Rango-impB inh -0.1%, Rango release inh 6.0% and miR-21 FLuc 5.5%.
Screening O=C1C=C(c2ccc(OC(F)(F)F)cc2)C[C@@H](c2ccc(Cl)cc2)C1 returned Rango-impB inh 0.5% and Rango release inh -7.2%.
CSc1ccccc1OCc1cc(C(=O)N(C)C(C)c2nc(C)cs2)no1 (stereo not given) was read as Rango-impB inh -3.5%, Rango release inh -7.2% and miR-21 FLuc -14.1%.
Screening CCCCn1c(=O)[nH]c(=O)c2c1nc(-c1ccc(C(F)(F)F)cc1)n2C returned GLA inh pH 4.5 2.1, Rango-impB inh -3.3%, Rango release inh -2.6% and miR-21 FLuc -7.0%.
O=C(NCC1CCCO1)c1ccc(NC(=O)c2cccc(Br)c2)cc1 (stereo not given) was read as Rango-impB inh -0.4%, Rango release inh 9.5% and miR-21 FLuc -5.9%.
Screening CC(C)Sc1nc(O)c(Cc2ccccc2)c(=O)[nH]1 returned GLA inh pH 4.5 10.7, Rango-impB inh -6.7%, Rango release inh 10.8% and miR-21 FLuc -0.5%.
O=C(NC1CC1)C1=C[C@H](c2c[nH]c3ccccc23)C[C@H](OCc2ccc(CO)cc2)O1 was read as GLA inh pH 4.5 -4.3, Rango-impB inh inconclusive, Rango release inh -23.5% and miR-21 FLuc -0.9%.
`CCn1cc(C=O)c2cc(S(=O)(=O)N3CCOCC3)ccc21` gave GLA inh pH 4.5 5.5, Rango-impB inh 0.2%, Rango release inh 23.1% and miR-21 FLuc -12.9%.
`COc1ccc(C2(CNC(C)=O)CCOCC2)cc1OC` gave GLA inh pH 4.5 -0.5, Rango-impB inh 1.2%, Rango release inh 0.1% and miR-21 FLuc -9.3%.
Screening Cc1nnc2sc(SCc3cccc(Cl)c3)nn2c1=O returned GLA inh pH 4.5 -9.0, Rango-impB inh 0.5%, Rango release inh 8.0% and miR-21 FLuc 4.9%.
Screening CCOc1ccc(C(=O)CCC(=O)N(CC)CC(=O)Nc2c(F)cccc2F)cc1 returned Rango-impB inh -1.5% and Rango release inh 7.0%.
CC1CCN(C(=O)CC2C(=O)Nc3c2c(=O)n(C)c(=O)n3Cc2ccccc2)CC1 (stereo not given) was read as GLA inh pH 4.5 -17.4, Rango-impB inh 1.7%, Rango release inh -8.6% and miR-21 FLuc -8.4%.
`Nc1c(C(=O)NCCc2ccccc2)sc2nc(N3CCOCC3)c3c(c12)CCCC3` gave GLA inh pH 4.5 12.5, Rango-impB inh -3.0%, Rango release inh 15.8% and miR-21 FLuc -6.1%.
`CCN1C(=O)CC(NNC(=O)c2ccccc2)C1=O` (stereo not given) gave GLA inh pH 4.5 0.2, Rango-impB inh 0.5%, Rango release inh 6.0% and miR-21 FLuc -12.6%.
Cc1cc(Br)c(NC(=O)CN2CCCC2)c(Br)c1 was read as Rango-impB inh -1.7%, Rango release inh 0.7% and miR-21 FLuc -29.2%.
COc1cccc(C(=O)NC2CCN(CC(=O)NCc3ccccc3F)CC2)c1 was read as Rango-impB inh 2.1%, Rango release inh 21.0% and miR-21 FLuc -4.8%.
CCCCCCOC(=O)C(C#N)c1nc2ccccc2nc1N1CCOCC1 (stereo not given) was read as GLA inh pH 4.5 1.7, Rango-impB inh inconclusive, Rango release inh inconclusive and miR-21 FLuc 1.1%.
Screening COc1ccc(O)c(C(=O)c2cnc3onc(C(C)C)c3c2)c1 returned GLA inh pH 4.5 3.5, Rango-impB inh 0.7%, Rango release inh -18.3% and miR-21 FLuc -28.4%.
Screening CSCCC(NC(=O)c1ccccc1Cl)C(=O)N1CCC1 (stereo not given) returned Rango-impB inh 1.0% and Rango release inh 19.3%.
For O=[N+]([O-])c1cccnc1NCCc1ccccc1 the results were GLA inh pH 4.5 2.9, Rango-impB inh 0.3%, Rango release inh 3.5% and miR-21 FLuc -60.7%.
Screening O=C(C[C@@H]1C/C=C\CCC(=O)OC[C@@H]2CCCN2C1=O)NCCO returned Rango-impB inh -0.2% and Rango release inh 20.1%.
For COc1ccc(C(=O)NC(=S)NCc2ccccc2)cc1 the results were GLA inh pH 4.5 -8.4, Rango-impB inh 2.8%, Rango release inh 5.7% and miR-21 FLuc -12.5%.
Screening CCCOc1ccc(C(C(=O)OCCN(CC)CC)c2ccccc2)cc1 (stereo not given) returned GLA inh pH 4.5 -7.3, Rango-impB inh 7.4%, Rango release inh 1.3% and miR-21 FLuc 2.1%.
COc1ccc(C(=O)n2nc(-c3ccco3)nc2SC)cc1OC was read as GLA inh pH 4.5 1.4, Rango-impB inh -3.7%, Rango release inh -13.7% and miR-21 FLuc -2.3%.
CCC(C(=O)Nc1ccc(S(=O)(=O)N2CCN(C)CC2)cc1)c1ccccc1 (stereo not given) was read as Rango-impB inh 0.9% and Rango release inh 3.8%.
Screening Cc1ccc(NC(=O)CS(=O)CC(=O)Nc2ccc(N3CCOCC3)cc2)cc1Cl (stereo not given) returned GLA inh pH 4.5 7.2, Rango-impB inh inconclusive, Rango release inh -5.8% and miR-21 FLuc -19.6%.
For CN(C)N=Nc1ccc(S(=O)(=O)N2CCSC2C(=O)O)cc1 (stereo not given) the results were Rango-impB inh 0.7% and Rango release inh 8.1%.
`O=C(O)c1ccc(S(=O)(=O)N2CCC(n3nnc4cc(C(F)(F)F)ccc43)CC2)cc1` gave Rango-impB inh -2.9%, Rango release inh 4.1% and miR-21 FLuc -3.3%.
Cc1coc2cc3oc(=O)c(CCC(=O)N4CCC(C(=O)O)(c5ccccc5)CC4)c(C)c3cc12 was read as Rango-impB inh 6.4%, Rango release inh 1.8% and miR-21 FLuc -1.9%.
Screening COc1ccc(-c2nc3c4c(ncn3n2)-c2ccccc2CC42CCCC2)cc1 returned GLA inh pH 4.5 6.0, Rango-impB inh 1.4%, Rango release inh 1.9% and miR-21 FLuc 0.4%.
`COc1ccc(Br)cc1CNC(=O)C1CCCN(c2nc3ccccc3o2)C1` (stereo not given) gave GLA inh pH 4.5 0.6, Rango-impB inh 4.5%, Rango release inh 2.1% and miR-21 FLuc -0.2%.
Cc1cccc(-n2c(SCC(=O)O)nc3sc4c(c3c2=O)CCCC4)c1 was read as GLA inh pH 4.5 7.1, Rango-impB inh 0.5%, Rango release inh -5.0% and miR-21 FLuc -4.5%.
O=C(COC(=O)/C=C/c1nc2ccccc2s1)Nc1cccc2ccccc12 was read as GLA inh pH 4.5 8.1, Rango-impB inh 0.9%, Rango release inh -5.0% and miR-21 FLuc -0.9%.
Screening Cc1[nH]c2ccccc2c1CCN(Cc1cccs1)C(=S)NC(C)(C)C returned GLA inh pH 4.5 -2.0, Rango-impB inh 0.5%, Rango release inh 4.1% and miR-21 FLuc -1.0%.
CCS(=O)(=O)N(CC(=O)Nc1cccc2ccccc12)c1ccc(OC)cc1 was read as Rango-impB inh -1.7% and Rango release inh 0.2%.
Screening CCCCC(C(=O)NC(C)(C)C)N(Cc1ccco1)C(=O)c1snc(C(N)=O)c1N (stereo not given) returned GLA inh pH 4.5 -0.1, Rango-impB inh 1.0%, Rango release inh 2.1% and miR-21 FLuc 3.7%.
